GLA inh pH 4.5 = alpha-galactosidase A (human) inhibition, pH 4.5; purified enzyme, 4-MU-alpha-Gal fluorescence, pH 4.5; activity change, negative = inhibition, % at 105 µM; P06280; 230,000 tested, under 10 active; AID 1467; inconclusive = small, poorly fitted or top-dose-only inhibition, or a rising curve; inactive = flat fitted curve, though single readings scatter; no compound was filed as active;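 also: 0% = full activity with enzyme and -100% = basal without enzyme; dose as in the result columns while the protocol names 77 µM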
Rango release inh = inhibition of RanGTP-driven Rango-importin beta dissociation; Biochemical FRET Rango-importin beta, RanGTP-induced dissociation; actives 0.071% (n = 340,000); AID 540253; O95149+P62826; Potency, µM (highest dose often 46.1 µM), without a hit: top-dose activity change, negative = inhibition; active means falling FRET ratio curve, often poorly fitted, with flat reads before Ran was added; inconclusive means other falling curves, or compound fluorescence or quenching; inactive means flat or rising ratio curve;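 also: potency is read from the fitted curve at half-maximal effect; % of control where 0% means no effect; nearly all actives have a fitted effect of over 45% in size; -100% = wells without RanGTP and RCC1; the record marks most hits as doubtful in a second field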
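Compounds preincubate 5 min with complex of recombinant Rango and importin beta in PBS with 1 mM DTT. Ran (0.6 uM) loaded with 2 mM GTP plus 0.2 uM RCC1 starts dissociation; FRET is recorded 45 min later.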
miR-21 FLuc = raises the signal of a miR-21 reporter; 340,000 tested, under 10 active; Potency, µM (top dose mostly 38.3 µM), inactives show at the highest dose reporter change, positive = more light; AID 2288; HeLa miR-21 FLuc reporter, luciferase, 48 h; active = well fitted rising curve with a large enough effect; inconclusive = small, poorly fitted or top-dose-only effect; inactive = no such curve, though single readings can be large or run the other way;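 also: % of control where 0% means no effect; miR-21 action dims this reporter so a rising signal means less miR-21 action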
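Using DMEM plus 10% FBS, HeLa miR-21-FLuc cells are incubated with test compounds (final up to about 40uM) for 48 hours; firefly luciferase signal is then imaged following reagent-mediated lysis.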
Rango-impB inh = prevents formation of the Rango-importin beta complex | Rango CFP/YFP FRET sensor + importin beta, 45 min | Potency, µM (top dose mostly 92.2 µM), for the others: top-dose inhibition of complex formation | actives 0.031% (n = 340,000); active = rising FRET ratio curve, often small or poorly fitted; inconclusive = mostly compound fluorescence or quenching in the first reads; inactive = flat curves in all reads;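 also: potency is read from the fitted curve at half-maximal effect; 0% = DMSO wells and 100% = buffer wells lacking importin beta; nearly all actives have a fitted effect of over 15% in size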
Target sequence (Q14974 whole entry, looked up): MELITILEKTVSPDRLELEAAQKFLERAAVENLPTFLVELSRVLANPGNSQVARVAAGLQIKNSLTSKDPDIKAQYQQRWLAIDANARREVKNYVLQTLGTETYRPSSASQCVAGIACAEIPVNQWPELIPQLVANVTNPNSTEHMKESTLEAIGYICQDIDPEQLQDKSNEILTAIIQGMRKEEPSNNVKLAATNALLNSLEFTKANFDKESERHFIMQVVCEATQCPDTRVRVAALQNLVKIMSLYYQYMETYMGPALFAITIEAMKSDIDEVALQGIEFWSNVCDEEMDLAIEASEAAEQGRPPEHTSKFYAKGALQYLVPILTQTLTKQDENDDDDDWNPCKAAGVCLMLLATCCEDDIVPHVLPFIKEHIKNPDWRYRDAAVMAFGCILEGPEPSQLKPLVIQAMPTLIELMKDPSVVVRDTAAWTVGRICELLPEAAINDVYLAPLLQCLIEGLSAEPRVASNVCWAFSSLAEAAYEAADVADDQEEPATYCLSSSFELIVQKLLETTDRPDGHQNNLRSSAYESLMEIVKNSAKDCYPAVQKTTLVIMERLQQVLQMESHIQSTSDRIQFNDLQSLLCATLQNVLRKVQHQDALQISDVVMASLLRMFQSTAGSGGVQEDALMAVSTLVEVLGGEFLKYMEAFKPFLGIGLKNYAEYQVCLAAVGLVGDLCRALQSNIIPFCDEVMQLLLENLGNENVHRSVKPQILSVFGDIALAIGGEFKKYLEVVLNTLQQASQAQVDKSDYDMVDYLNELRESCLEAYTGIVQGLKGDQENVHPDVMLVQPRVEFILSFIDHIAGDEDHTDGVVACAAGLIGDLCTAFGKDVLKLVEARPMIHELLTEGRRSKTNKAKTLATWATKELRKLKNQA
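FRET biosensor (snurportin 1 IBB flanked by EYFP and cerulean), 50 nM, with compound 5 min, then 0.125 microM importin beta in PBS, 1 mM DTT, 0.02% Tween-20, 0.1% BSA. CFP/YFP ratio read after 45 min at room temperature; pre-read flags interference.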
Starred values were filed as active, the others as inactive; ? = inconclusive; . = no result given; [ ] = remark or other dose. The list is partial; the hit share may differ from the screen's.

Under each structure: GLA inh pH 4.5 | Rango release inh | miR-21 FLuc | Rango-impB inh
CCOC(=O)C(NC(=O)c1ccc(OC)cc1)(N1CCCC1=O)C(F)(F)F (stereo unspecified)
  -5.7 | 17.3% | -7.6% | -0.9%
CCCCn1c(N)c(N(CC)C(=O)CCNC(=O)NC23CC4CC(CC(C4)C2)C3)c(=O)[nH]c1=O
  . | 0.5% | -7.3% | -1.2%
COc1cc(/C=N/NC(=S)NCc2ccco2)cc(OC)c1OC
  7.5 | -17.0% | -4.3% | 0.7%
COc1ccc(CNC(=O)CSc2nc3cccnc3s2)cc1
  -8.9 | -4.1% | -31.5% | -2.4%
CCc1nn(CC(=O)NCCc2ccc(Cl)cc2)c(=O)c2cccn12
  . | 33.3% | -0.1% | 1.9%
CCN(C(=O)c1coc(=O)c2ccccc12)c1cc(OC)ccc1OC
  -5.6 | -9.3% | -4.6% | -0.9%
COc1ccc(C)cc1NC(=O)CN1C(=O)COc2ccc(S(=O)(=O)N3CCCCC3)cc21
  . | -1.9% | -0.4% | -1.5%
Cc1cc(C)n(CC(=O)n2c(C)c(C)c3ccccc32)n1
  -3.6 | -11.3% | -5.6% | -0.6%
O=C(c1cccc(C(=O)N(c2ccccn2)C2CCCCC2)c1)N(c1ccccn1)C1CCCCC1
  -1.0 | -0.5% | 0.1% | 1.6%
Cc1ccc(S(=O)(=O)N2CCN(C(=O)CCc3c[nH]c4ccccc34)CC2)cc1
  . | 50.1% | . | -3.5%
CCCCC(O)(CCCC)C(=O)N/N=C(\C)c1ccc(Cl)cc1
  -14.5 | -9.2% | 0.0% | -1.6%
O=C(CCCC(=O)c1ccccc1)Nc1ccc(O)cc1
  . | 6.1% | -4.3% | -5.2%
CC(C)OCCCNC(=O)c1ccccc1Oc1ccccc1
  1.4 | 1.1% | -2.6% | -0.1%
COc1cccc(/C=N/NC(=O)Cn2nc([N+](=O)[O-])cc2C)c1
  3.6 | -14.6% | 1.8% | 0.3%
Cc1cc(C(=O)COc2ccc(Cl)cc2Br)c(C)n1C
  2.4 | 3.3% | -47.4% | 0.6%
O=C(N/N=C/c1c(O)n(-c2ccccc2Cl)c(=O)c2ccccc12)C1COc2ccccc2O1 (stereo unspecified)
  -7.3 | ? | 14.0% | ?
Cc1cccc(Nc2ccc(C(=O)O)cc2[N+](=O)[O-])c1C
  . | -10.0% | -4.4% | 0.3%
C=CCCCCCCCCC(=O)NNC1CC(=O)N(c2ccccc2)C1=O (stereo unspecified)
  -3.0 | 0.8% | -0.8% | 0.6%
Cc1ccc(-n2ccc(=O)c(-c3ccnc(SCc4cccc(Cl)c4)n3)n2)cc1
  ? | -7.8% | -11.6% | 2.2%
O=C1N/C(=N\N=C\c2cccs2)SC1Cc1ccc(Cl)cc1 (stereo unspecified)
  -0.6 | -2.3% | -3.4% | 2.2%
Cc1n[nH]c(=O)nc1NCc1ccccc1Cl
  3.2 | 2.0% | -1.4% | 3.3%
CCC(=O)NCCc1cc2cc(C)c(C)cc2[nH]c1=O
  -1.6 | 1.1% | -7.9% | 3.8%
Cc1c(NC(=O)CCCN2C(=O)c3cccc4cccc(c34)C2=O)c(=O)n(-c2ccccc2)n1C
  -3.3 | -0.4% | -4.5% | 1.8%
Cc1cc(N2CCN(C)CC2)nc2ccc(NC(=S)N3CCCCCC3)cc12
  4.5 | 3.6% | -34.3% | 4.0%
N#CCCN(Cc1ccccc1)S(=O)(=O)c1cccs1
  . | -1.9% | -0.2% | -1.0%
Cc1cc(C)c2c(CN3CCCCC3C)cc(=O)oc2c1 (stereo unspecified)
  . | 7.9% | -11.5% | 3.8%
CCCc1cc(-c2[nH]ncc2-c2ccc3c(c2)OCCCO3)c(O)cc1O
  -10.4 | 8.1% | 15.0% | -0.4%
Cc1ccc(O)c(C(CC(=O)NC2CCCCC2)c2ccccc2)c1 (stereo unspecified)
  4.1[21.1 µM] | 6.2% | 7.3% | 7.6%
CCOc1cc(/C=C/C(=O)O)ccc1OCCO
  -27.7 | 6.5% | -0.5% | 1.4%
Cc1nnc(SCCn2c(N3CCC(C)CC3)nc3c2c(=O)n(C)c(=O)n3C)s1
  . | -8.6% | . | -1.1%
CCN(CC)S(=O)(=O)c1cccc(C(=O)Nc2ccc(Cl)cn2)c1
  -7.4 | -7.4% | -11.2% | -3.9%
O=C(NCCN1CCOCC1)C(=O)NCC1OCCN1S(=O)(=O)c1ccc(Br)cc1 (stereo unspecified)
  . | -4.9% | -1.0% | 3.9%
CC1=NN(C(=O)c2cccnc2)C(O)(C(F)(F)F)C1 (stereo unspecified)
  3.1[21.1 µM] | ? | 2.2% | 2.9%
COc1ccc2c(c1)[C@H]1[C@H](CO2)[C@H](c2ccccc2)[C@]2(C)C(=O)N(Cc3ccc(C)cc3)CC(=O)N12
  . | -4.5% | . | -0.5%
C=CCN(CC(=O)O)S(=O)(=O)c1ccccc1C(F)(F)F
  -7.0 | -1.8% | 0.2% | 0.6%
Cc1ccc2[nH]c(=O)c(CN(Cc3cccs3)Cc3nnnn3CC3CCCO3)cc2c1 (stereo unspecified)
  0.8 | -10.7% | -5.1% | -1.0%
COc1ccc(NC(=O)C2CCCCN2S(=O)(=O)c2ccc(F)cc2)cc1 (stereo unspecified)
  4.4 | 7.0% | 0.3% | 4.1%
Cc1ccc(C(=O)N2CCN3C(=O)c4ccccc4C23c2ccc(Cl)cc2)cc1 (stereo unspecified)
  -12.4 | 12.8% | -2.3% | -4.4%
CC(=O)Nc1ccc(-c2nnn(CC(=O)c3ccc(F)cc3)n2)cc1Cl
  3.5 | -9.6% | -3.7% | -3.9%
CC(C)N1CCc2c(sc(NC(=O)c3cc4cc([N+](=O)[O-])ccc4s3)c2C(N)=O)C1
  -16.3 | ? | -4.3% | ?
C[C@H](CO)N1C[C@H](C)[C@@H](CN(C)Cc2ccncc2)Oc2c(NS(=O)(=O)c3cccs3)cccc2C1=O
  . | 4.3% | . | 2.3%
Nc1c(NC(=O)CC[n+]2ccccc2)cccc1[N+](=O)[O-]
  -3.6 | 5.0% | -17.1% | 2.3%
CCCC(=O)NCc1cc(-c2nn(C)c(=O)c3ccccc23)ccc1OC
  1.8 | -13.3% | -1.9% | -4.7%
Cc1cc(=O)oc2cc(NC(=O)C3COc4ccccc4O3)ccc12 (stereo unspecified)
  0.9 | -0.6% | -23.7% | -3.9%
Cc1ccc(C(=O)Nc2ccccc2C(=O)O)cc1NC(=O)COc1c(C)cccc1C
  1.9 | -16.6% | -5.8% | -0.1%
Cc1ccccc1N1C(=O)C2ON(c3ccccc3)C(c3cccnc3)C2C1=O (stereo unspecified)
  0.4 | 9.5% | 1.5% | 0.2%
CC(c1ccco1)N(C(=O)c1cc(Cl)cc(Cl)c1)c1ccccn1 (stereo unspecified)
  . | 0.1% | 5.2% | 1.4%
CCOC(=O)CC(=O)Nc1nnc(C(C)C)s1
  6.8 | 4.8% | -0.6% | 3.0%
CCN(C(=O)COC(=O)c1ccccc1NCCO)c1cccc2ccccc12
  . | 1.7% | . | 0.4%
CCOc1ccc(OCC)c(NC(=O)CSc2nnnn2CC)c1
  -9.7 | -2.0% | -4.8% | -6.9%
CCOCCCNC(=S)N(Cc1ccccc1)Cc1nc2ccccc2c(=O)[nH]1
  0.4 | -10.1% | -0.2% | -4.1%
O=C(c1ccccc1)N1CCN(C(=O)c2cc3nc(-c4ccccc4)cc(C(F)(F)F)n3n2)CC1
  . | -0.4% | 0.4% | -0.1%
CCC(c1nnc(SCC(=O)NCCc2ccc(Cl)cc2Cl)o1)N(C)C (stereo unspecified)
  2.0 | 7.0% | -0.8% | -2.1%
COc1ccccc1NC(=O)Nc1ccccc1C#N
  . | 2.8% | -0.4% | -0.2%
COc1ccc(OC)c(CN2CCC(Cc3ccccc3)CC2)c1
  . | 8.1% | 15.2% | -2.2%
CCN(CC)CCC(c1ccc(N(C)C)cc1)c1c(OC)cc(OC)c2ccc(=O)oc12 (stereo unspecified)
  2.5 | 0.3% | -5.3% | 3.7%
CC(C)c1cccc(C(C)C)c1NC(=O)COC(=O)c1ccc2c(c1)S(=O)(=O)c1ccccc1C2=O
  7.0 | 38.0% | -0.9% | 7.3%
Cn1c(CNS(=O)(=O)c2ccc(Br)cc2)n[nH]c1=S
  3.5 | -14.1% | -1.6% | 1.5%
COc1ccc(NC(=O)c2cccc(-n3c(C)ccc3C)c2)c(OC)c1
  -1.9 | -12.9% | -24.6% | -0.9%
Cc1ccc(C(=O)COC(=O)C2CC(=O)N(c3nc(-c4ccccc4)cs3)C2)cc1C (stereo unspecified)
  4.3 | 0.0% | -3.6% | -0.7%

Whole records as entered above. Values in the order: GLA inh pH 4.5	Rango release inh	miR-21 FLuc	Rango-impB inh
`CC(c1ccco1)N(C(=O)c1cc(Cl)cc(Cl)c1)c1ccccn1` (stereo unspecified) is listed with .	0.1%	5.2%	1.4%
`COc1ccc(OC)c(CN2CCC(Cc3ccccc3)CC2)c1` is listed with .	8.1%	15.2%	-2.2%
`Cc1ccccc1N1C(=O)C2ON(c3ccccc3)C(c3cccnc3)C2C1=O` (stereo unspecified) is listed with 0.4	9.5%	1.5%	0.2%

Going on with the list.
Under each structure: GLA inh pH 4.5 | Rango release inh | miR-21 FLuc | Rango-impB inh
Oc1cccc(Nc2nc(NCC3CCCO3)c3ccccc3n2)c1 (stereo unspecified)
  -0.7 | -3.6% | 27.3% | 3.0%
CN1CCN(S(=O)(=O)c2ccc(N3CCN(S(=O)(=O)c4cccs4)CC3)nc2)CC1
  9.9 | 1.4% | -6.2% | -4.4%
Cc1cnc(C(=O)OCC(=O)Nc2sc3c(c2C#N)CCC3)cn1
  . | -17.4% | . | -0.9%
O=C(COC(=O)Cc1ccc(Br)cc1)NC1CCCCCC1
  10.0 | 0.4% | 0.6% | -0.2%
O=C(COC(=O)c1cc(-c2ccco2)nc2ccccc12)NCc1ccc2c(c1)OCO2
  5.1 | ? | -4.9% | ?
COC(=O)[C@]1(Cc2ccccc2)N[C@H](CN(C)C(=O)Nc2ccc(C(F)(F)F)cc2)[C@@H]2C(=O)N(Cc3ccccc3)C(=O)[C@@H]21
  . | 15.5% | . | 0.6%
COc1ccc(C(=O)N2CCC(c3ccccc3)CC2)c(OC)c1OC
  -1.0 | 1.7% | 4.0% | 0.4%
CCOC(=O)c1ccccc1NC(=O)CN1CCC(n2nnc3cc(F)ccc32)CC1
  . | -8.3% | . | 0.0%
CCc1nn(CCCC(=O)N2CCN(c3cccc(C)c3C)CC2)c(=O)c2cc3occc3n12
  . | -6.6% | -1.7% | -1.1%
COc1ccc(CNC2CCSc3ccccc32)cc1OC (stereo unspecified)
  . | -2.3% | -1.2% | -0.7%
CCCCn1c(N)c(N(CCOC)C(=O)C2CCN(S(=O)(=O)c3ccc(F)cc3)CC2)c(=O)[nH]c1=O
  . | 3.7% | . | 6.5%
CCCCn1c2nc3ccccc3nc2c2c(=O)n(CCC)cnc21
  5.7 | 2.0% | 0.2% | 0.0%
COc1ccc(Br)cc1CN1CCCCCC1
  . | 1.1% | -0.2% | 5.3%
Cc1ccc(NC2Nc3cc(C)nn3S2)c(C)c1 (stereo unspecified)
  4.0 | -0.3% | -66.8% | 3.6%
COc1ccc(C(=O)Cc2ccc(OC)c(OC)c2)cc1
  -1.1 | 0.1% | -40.7% | 1.9%
COC(=O)c1cnn(-c2ccccc2)c1C(OC)OC
  -2.9 | 0.6% | -6.7% | 6.4%
O=C(CCC(=O)N1CCSc2ccccc21)NC1CCCCC1
  . | 18.2% | -3.2% | -3.9%
Cc1cc(C)c(S(=O)(=O)N2CCN(C(=O)c3ccccc3OCc3c(C)noc3C)CC2)c(C)c1
  . | 3.4% | . | 0.1%
COc1cc(N)c(Cl)cc1C(=O)OCC(=O)NC1CCCC1
  . | -7.6% | -6.2% | -1.4%
O=C(COc1ccccc1)NCc1n[nH]c(=S)n1-c1ccccc1
  6.4 | -11.3% | -8.6% | -3.2%
COc1ccc2nc3oc(C(=O)NCCCOC(C)C)cc3cc2c1
  . | 4.7% | -12.0% | -1.1%
CCN(CC)CCN1C(=O)C(=O)/C(=C(/O)c2c(C)[nH]c(C(=O)OC)c2C)C1c1ccco1 (stereo unspecified)
  4.1 | -16.1% | -9.4% | -0.7%

Source: PubChem
